Screens deposited in PubChem by several laboratories.
ALR inh = human ALR oxidase inhibition via reduced H2O2; P55789; purified ALR, DTT oxidation, H2O2 HRP-luminol luminescence; inhibition, % (concentration not given with the values); 290,000 tested, 3.8% active;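 active = mean and each replicate at 75% or more; inconclusive = only one of the two met; inactive = neither met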;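 note: stock transfer was 7.5 nL into about 7.5 µL; 0% = neutral wells and 100% = wells with inactivated enzyme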
LANA-H2A inh = blocks KSHV LANA binding to histone H2A/H2B. cell-free LANA-H2A/H2B peptide, fluorescence polarization. inhibition, % (test concentration not listed). 320,000 tested, 0.6% active; in the data active = inhibition mostly above about 10%, no sharp cut-off; inactive = mostly below about 6.7%;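 note: stock transfer was 7.5 nL into about 10 µL; 0% = median of vehicle wells and 100% = median of positive control wells; one replicate is shown; the record names a cut of 25% in any replicate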
Target sequence (Q9QR71 whole entry, looked up): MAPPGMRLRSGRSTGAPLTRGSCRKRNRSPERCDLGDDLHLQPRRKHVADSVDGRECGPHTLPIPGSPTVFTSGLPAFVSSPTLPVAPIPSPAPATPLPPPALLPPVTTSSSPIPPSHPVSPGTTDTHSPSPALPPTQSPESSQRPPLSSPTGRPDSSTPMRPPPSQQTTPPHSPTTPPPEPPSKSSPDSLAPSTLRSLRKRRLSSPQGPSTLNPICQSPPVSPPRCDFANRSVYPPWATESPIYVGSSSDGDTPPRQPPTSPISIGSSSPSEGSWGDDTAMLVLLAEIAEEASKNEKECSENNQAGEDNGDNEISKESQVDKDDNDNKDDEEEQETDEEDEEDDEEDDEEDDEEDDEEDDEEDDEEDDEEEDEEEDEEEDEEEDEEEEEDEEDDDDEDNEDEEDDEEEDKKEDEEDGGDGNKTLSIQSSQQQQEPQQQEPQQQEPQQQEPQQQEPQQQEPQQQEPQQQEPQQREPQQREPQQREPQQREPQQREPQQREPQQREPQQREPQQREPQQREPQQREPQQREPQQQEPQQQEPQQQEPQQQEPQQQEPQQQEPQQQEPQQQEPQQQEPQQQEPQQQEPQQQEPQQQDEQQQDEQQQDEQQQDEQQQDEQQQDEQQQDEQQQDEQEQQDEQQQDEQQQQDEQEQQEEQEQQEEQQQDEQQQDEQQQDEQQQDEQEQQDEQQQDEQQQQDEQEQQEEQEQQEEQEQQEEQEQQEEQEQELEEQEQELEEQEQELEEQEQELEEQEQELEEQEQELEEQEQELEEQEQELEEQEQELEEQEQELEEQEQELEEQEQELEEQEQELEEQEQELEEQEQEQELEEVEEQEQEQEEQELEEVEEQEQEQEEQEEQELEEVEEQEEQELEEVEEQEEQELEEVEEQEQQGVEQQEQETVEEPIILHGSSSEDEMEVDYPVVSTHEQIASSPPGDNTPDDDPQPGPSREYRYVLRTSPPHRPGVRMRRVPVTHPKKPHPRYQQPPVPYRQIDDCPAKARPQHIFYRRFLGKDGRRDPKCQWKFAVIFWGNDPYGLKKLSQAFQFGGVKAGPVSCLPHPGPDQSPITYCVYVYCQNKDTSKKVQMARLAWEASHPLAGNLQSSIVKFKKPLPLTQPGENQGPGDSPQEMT
T cruzi inh = T. cruzi replication inhibition. 300,000 tested, 1.4% active. T. cruzi beta-gal in NIH3T3, luminescence, 90 h. AID 1885. inhibition, % (no concentration beside the values);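 active = mean inhibition across valid replicates above about 55%, limit read from the data; inconclusive = mean below that limit but half or more replicates reach it; inactive = mean below it, under half of replicates reach it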;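 note: signal also drops with host cell toxicity which is not excluded here; 0% = plate median of DMSO wells and 100% = zero luminescence signal; higher percent means less beta-gal luminescence so fewer parasites; stock transfer was 50 nL into about 50 µL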
rRNA inh HTS = inhibits bacterial ribosomal RNA function over humanized ribosomes; E. coli WT GFP vs humanized-ribosome RFP mutants, fluorescence, 24 h; active compounds read low; DMSO median 0, no signal -100; GFP signal change (wild-type ribosome), % (no concentration beside the values); 350,000 tested, 1.6% active; AID 720706;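 active = significant combined selectivity score with lowered wild-type GFP, culture density cut under 30%, mutant RFP and density less affected; inactive = any of these conditions unmet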; note: one replicate is shown; some compounds called inactive have numbers as strong as hits
Beta cell apopt = blocks beta cell apoptosis; INS-1E cytokine-induced death, ATP luminescence, 48 h; percent of positive-control rescue, neutral wells zero; AID 435005; protection from apoptosis, % (no concentration beside the values); 300,000 tested, 0.8% active;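 active = all replicates at 75% or more, or half of them and the mean; inconclusive = half reach 75% but not the mean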;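 note: 0% = cytokine-treated negative control wells and 100% = positive control rescue; higher means more ATP so stronger rescue from cytokine killing; wells of about 40 µL received 100 nL stock; the first replicate is given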
Calb FLC = affects C. albicans growth with fluconazole; 300,000 tested, 0.57% active; AID 1979; growth inhibition, % (test concentration not listed); C. albicans CaCi-2 (fluconazole-resistant clinical isolate) + fluconazole, Alamar Blue growth, 48 h;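 active = most replicates above 75%; inconclusive = exactly half above 75%; inactive = most below 75%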;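 note: all wells also contain fluconazole at 8 µg/ml as a sub-toxic cotreatment; 0% = median of DMSO wells and 100% = median of geldanamycin control wells; wells of about 8 µL received 7.5 nL stock; the first replicate is given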
Beta2AR agonist = activates human beta-2 adrenergic receptor causing internalization; 340,000 tested, 0.43% active; Am2.2-beta2AR cells, FAP receptor internalization, flow cytometry; reference of the scale not given here; response, % (concentration not given with the values);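 active = response above a set limit, near 3 SD of response in nonfluorescent compounds, cut at about 42% in these data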;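 note: stock transfer was 100 nL into about 11 µL; a reference agonist was the positive control; negative values mostly stem from fluorescent compounds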
A1 inh = inhibitors of the anti-apoptotic protein A1, read as caspase activation | MEF A1-2A-BIM cells, Caspase-Glo 3/7 luminescence, 3 h; percent of clofoctol response, vehicle zero | caspase activation, % (no concentration beside the values) | 330,000 tested, 0.066% active | AID 2462;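 active = over half of replicate activation scores above 10%, or exactly half above 10 with the replicate mean above 10; inconclusive = replicate mean below 10 yet half the replicates above 10; inactive = over half of replicates below 10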;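 note: wells of about 30 µL received 50 nL stock; many hits fall short of the cut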
rRNA inh HTS OD600 = recorded beside rRNA inh HTS, whose call it bears; OD600 change, %; measured here: OD600 growth;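 optical density of the mix in the first replicate; 0 = DMSO median and -100 = no signal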
rRNA inh HTS RFP = further read-out of rRNA inh HTS, marked with its call; RFP signal change, %; measured here: RFP humanized mutant strains;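 first replicate; 0 = DMSO median and -100 = no signal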
The depositor's hits bear a star; ? = inconclusive; / = not tested or not shown; & = joins results of further samples. These rows are one share of the data (hit frequency here may not be typical).

Values run as follows: ALR inh, LANA-H2A inh, T cruzi inh, rRNA inh HTS, rRNA inh HTS OD600, rRNA inh HTS RFP, Beta cell apopt, Calb FLC, Beta2AR agonist, A1 inh
COc1ccc(Cc2nc3ccc(C(=O)NC(C)Cc4ncccc4C)cc3o2)cc1OC (stereo unspecified)
    -5.9, 1.3, 19.8, 1.5, -11.7, 1.8, -5.5, -1.2, 18.5, -0.2
CNC(=O)c1[nH]cnc1C(=O)N[C@@H](C)C(=O)OCc1ccccc1
    -11.3, 1.6, -1.9, -6.6, -9.7, -1.6, 4.4, 6.0, 0.0, 0.0
COc1ccc(NC(=O)c2ccc(COc3ccccc3Br)o2)c(OC)c1
    -0.1, 2.2, 31.9, -16.4*, -10.5*, 6.3*, -0.4, -3.9, -5.2, -0.2
CSc1ccc(C(=O)C2CCCN(C(=O)c3cccc(N4CCOCC4)c3)C2)cc1 (stereo unspecified)
    /, -0.8, /, -1.6, 0.3, 5.0, 1.3, 6.2, -2.9, -1.9
CN1C[C@@H]2C(c3ccc(C(F)(F)F)cc3)C3(c4cccnc4)CC2(C3)[C@H]1c1ccccc1 (stereo partly specified)
    -39.9, 6.5, 43.8, -11.0, -24.1, -3.5, 6.8, -3.4, 5.9, -0.5
NS(=O)(=O)c1ccc(CCNC(=O)CNC(=O)Cc2cccc3ccccc23)cc1
    35.6, 1.7, -13.5, 5.0, 10.0, -1.3, -3.8, /, 9.3, -0.4
CCCCOc1ccc(C(=O)N/C(=C/C=C/c2ccccc2)C(=O)O)cc1
    -2.9, -4.5, 0.2, -24.6, -32.4, -5.7, /, -1.1, -19.9, 0.8
Clc1cc(Cl)c(OCc2nc(-c3ccccn3)no2)cc1Cl
    4.9, 1.4, 9.5, /, /, /, 1.4, -9.7, -17.6, -8.0
Cc1ccc2ccccc2[n+]1CCCS(=O)(=O)[O-]
    -16.3, -2.4, 10.5, /, /, /, -3.8, 5.4, -1.4, -0.7
Cn1c(CNC(=O)c2ccc(F)cc2)cc2ccccc21
    -10.1, 1.7, 11.3, 18.8, 13.9, 17.1, -3.6, 1.3, 0.4, 0.2
Cc1ccc2cc(CN(CCCN(C)C)C(=S)NCc3ccccc3)c(=O)[nH]c2c1C
    /, /, 41.3, /, /, /, 0.0, 27.7, 32.7, 0.2
CCC(=O)N1CCN(c2ccccc2NC(=O)COc2cc(C)ccc2C(C)C)CC1
    -2.2, -1.5, 21.6, 0.4&-36.8, -6.0&-59.0, 0.0&-6.5, 15.8, 5.2, 5.9, -0.3
COc1ccccc1NC(=O)c1ccc(NC(=O)CN2C(=O)CN(C)C2=O)cc1
    -7.2, 5.0, -1.1, 4.1, 10.7, 1.7, 1.0, -6.2, 2.6, 1.1
O=C(OCc1ccc(Cl)cc1Cl)c1cccnc1Cl
    /, -1.3, 10.4, /, /, /, 0.1, 4.8, -4.0, 0.2
CC(=O)c1cccc(NC(=O)COC(=O)CCC(=O)c2ccc(F)cc2)c1
    -3.3, 4.0, /, -17.1*, -12.2*, 5.1*, 1.6, /, 8.0, 1.0
CCOC(=O)c1[nH]c2ccc(OC)cc2c1NC(=S)N1CCN(c2ccccn2)CC1
    /, 0.4, -1.7, 0.0, 0.5, 0.4, -2.3, -1.1, 1.4, -0.2
CCOC(=O)C(CC)/C(C)=N\NC(=O)c1cccc(C)c1 (stereo unspecified)
    1.4, 1.0, 21.6, 1.9, 0.0, -6.8, -5.0, 1.9, 2.2, 0.1
CC(C)CCOc1ccc(C(=O)NCCC(=O)N2CCOCC2)cc1
    2.5, 4.3, 1.5, 3.4, -1.1, -4.6, 2.3, 8.8, -3.3, -0.3
O=C(Nc1ccc2nc3n(c(=O)c2c1)CCCCC3)c1c(F)ccc([N+](=O)[O-])c1F
    6.3, -4.1, 10.2, -22.2*, -10.2*, 0.3*, 105.2*, -7.1, 19.8, 2.4
COCCSc1nc(N)c(NC(=O)c2ccc(OC)cc2)c(=O)[nH]1
    -8.3, -4.9, -0.3, 16.1, 15.9, 5.6, -1.7, -18.8, 2.5, -0.3
CCC(=O)Nc1ccccc1C(=O)NC1CCCCC1
    -2.7, -4.6, -5.3, 19.8, 18.6, -3.3, -0.1, -4.9, 1.5, -0.4
CNC(=O)CC1C(=O)N(Cc2ccccc2)C(=S)N1NC(=O)c1cccc(F)c1 (stereo unspecified)
    9.1, 5.4, 13.0, -7.6, -12.1, -6.7, -2.6, -10.2, 1.7, 0.5
CC(C)n1nnnc1SCC(=O)c1c(N)n(C2CC2)c(=O)[nH]c1=O
    2.4, -0.3, /, 1.9, 1.1, -1.7, -2.9, /, -0.8, 1.0
CN1CCN(C(=O)CN(c2cccc(Cl)c2)S(=O)(=O)c2ccccc2)CC1
    -3.5, 2.1, -7.1, /, /, /, -0.8, -1.5, -6.7, -0.7
O=C(O)CC/C(=C\c1ccc2c(c1)OCO2)c1nc2ccccc2s1
    /, 3.8, -28.5, -17.7, -33.7, -2.4, -3.1, 61.6, 6.0, ?
CCC(=O)N1CCN(c2cc3c(cc2F)c(=O)c(C(=O)O)cn3CC)CC1
    -8.7, -2.5, -22.1, -49.3, -80.9, -13.2, 0.0, -9.8, -5.7, -0.1
Cc1ccc(C(=O)N/N=C\c2cccc(OC(=O)c3cccc(F)c3)c2)cn1
    1.7, 2.6, -7.2, 4.9, 6.4, -2.9, 1.5, -2.2, -5.2, -0.5
CC(C)CNC(=O)NC1C(NC(=O)NCC(C)C)N(C)C(=O)N1C (stereo unspecified)
    1.3, 1.8, -3.3, /, /, /, -2.1, -4.2, -12.0, 1.1
O=C(N/C(=C/c1ccc(Br)cc1)C(=O)N1CCCC1=O)c1ccco1
    2.4, -0.8, -0.7, 0.6, 2.8, 0.1, -4.8, -1.7, 6.0, 0.2
COc1ccc(COc2cc(-c3cccc(OC)c3)nc3ccc(NC(C)=O)cc23)cc1
    1.4, -0.1, 68.3*, 12.6, 14.2, 0.0, 1.7, -10.3, 7.2, 0.4

Quoted at random: two records from the list.
Values run as follows: ALR inh, LANA-H2A inh, T cruzi inh, rRNA inh HTS, rRNA inh HTS OD600, rRNA inh HTS RFP, Beta cell apopt, Calb FLC, Beta2AR agonist, A1 inh
Cc1ccc2ccccc2[n+]1CCCS(=O)(=O)[O-]
    -16.3, -2.4, 10.5, /, /, /, -3.8, 5.4, -1.4, -0.7
CSc1ccc(C(=O)C2CCCN(C(=O)c3cccc(N4CCOCC4)c3)C2)cc1 (stereo unspecified)
    /, -0.8, /, -1.6, 0.3, 5.0, 1.3, 6.2, -2.9, -1.9

Later entries:
Values run as follows: ALR inh, LANA-H2A inh, T cruzi inh, rRNA inh HTS, rRNA inh HTS OD600, rRNA inh HTS RFP, Beta cell apopt, Calb FLC, Beta2AR agonist, A1 inh
Oc1ccccc1CNc1cccc2cccnc12
    -125.0, -2.2, 6.6, 18.1, -7.3, -5.8, 12.7, -1.6, 2.6, -1.0
CCOc1ccc(N2CC(C(=O)N3CCCCC3)CC2=O)cc1 (stereo unspecified)
    /, -6.0, -5.9, 10.6, 18.0, 1.8, -1.7, 5.6, -5.6, -0.2
CCOC(=O)C(NC(=O)Nc1cccc(C)n1)(OCC(F)(F)F)C(F)(F)F (stereo unspecified)
    0.4, -3.1, -4.9, /, /, /, -9.1, -10.3, 3.6, -0.2
O=C(Cc1ccccc1[N+](=O)[O-])NCc1ccc(Cl)cc1Cl
    -5.1, 0.7, -2.0, /, /, /, -0.7, -30.9, -1.2, -2.4
COc1ccc(-c2ccc(-c3noc(C)n3)c(OC)n2)cc1
    3.1, 7.7, -28.7, /, /, /, -4.4, 8.4, -8.6, -1.0
CN(C)N=Nc1nc[nH]c1C(N)=O
    -0.1, 1.0, /, /, /, /, /, /, -4.2, 0.0
CCOC(=O)C1=C(O)/C(=C\c2cc(C)n(-c3ccc(F)cc3)c2C)N=C1C
    12.6, -0.6, -1.6, 12.8, 12.5, 7.4, /, 15.2, -3.5, 0.1
CC1C(C(=O)Nc2ccccc2)CCCC1(C)C(=O)O (stereo unspecified)
    -10.9, -4.3, -8.0, /, /, /, -7.2, -6.0, 5.6, 0.2
O=C1CCN(C2CCN(Cc3nc(Cc4ccccc4F)no3)CC2)CCN1
    -11.2, -6.1, -7.1, /, /, /, -5.7, 8.4, 0.7, 0.2
COc1ccccc1OCc1nc(C#N)c(N2CCCC2)o1
    /, 4.3, -7.1, -13.3, -17.0, 0.7, -2.1, 15.7, -8.3, -1.0
CN(C(=O)CSc1nnc2n1CCCCC2)C1(C#N)CCCCC1
    -45.5, -2.3, /, 13.8, 14.4, -0.2, 5.0, /, 1.7, 1.6
O=C(NNC(=O)C1CCCCC1)C(=O)NC1CCCCC1
    -2.0, 0.6, -1.7, 8.4, 8.1, -3.9, -3.0, 4.5, 7.5, -2.1
O=C(O)CC12CC3CC(C1)CC(n1cncn1)(C3)C2
    -4.2, -1.5, -38.5, 5.9, 8.1, -6.9, -15.3, -3.1, 1.5, -0.1
O=C(O)CCC(=O)Nc1nc(-c2ccccc2)cs1
    -6.1, -6.6, -13.9, -2.1, -1.3, -5.3, -0.1, ?, -22.3, -3.0
COCCCN(C(=O)c1ccco1)c1nc(-c2cc(OC)ccc2OC)cs1
    3.2, 4.3, 20.7, /, /, /, -1.8, -0.9, -3.5, 0.0
CC(C)C(=O)Nc1cccc(C(=O)OCC(=O)c2ccc(Cl)cc2Cl)c1
    -5.2, -4.8, -2.8, /, /, /, -5.9, -23.3, -0.8, 0.0
CC1CCCN(S(=O)(=O)c2ccc3c(c2)c(=O)nc2ccccn23)C1 (stereo unspecified)
    4.8, 1.9, 1.9, 9.1, 5.0, 5.0, -5.3, 1.2, -9.6, 0.0
O=C(CCNC(=O)c1ccccc1)Nc1ccc(S(=O)(=O)Nc2ncccn2)cc1
    7.7, -3.2, /, 9.1, 11.5, -1.2, 4.3, /, 10.5, -1.0
Cc1cc(NC(=O)CSc2ncccc2C(=O)O)no1
    -3.4, -1.8, -23.8, 15.0, 10.2, -0.6, -4.4, 3.4, 10.3, 0.6
Fc1cc(F)nc(NCc2ccccc2)n1
    -4.0, -1.0, -6.2, -2.8, -0.3, 4.9, -5.1, -7.8, -0.4, 0.2
CSc1nc(-c2ccc(Cl)cc2)nn1S(=O)(=O)c1ccc(Cl)cc1
    2.1, 1.5, -5.0, /, /, /, 2.6, 2.1, -12.9, -1.8
COc1ccc2c(c1OC)C(=O)N1C2SC(C)(C)[C@H]1C(=O)NC1CC1 (stereo partly specified)
    -9.1, -1.1, 1.0, /, /, /, -2.2, 0.1, 9.6, 0.4
C=CCOc1ccccc1C1NC(=O)NC(C)=C1C(=O)NCc1ccccc1 (stereo unspecified)
    -4.4, 2.0, -21.6, /, /, /, -6.7, 17.8, -3.4, 0.5
COC(=O)c1cc(=O)n(Cc2cccs2)c(=NCc2cccs2)s1
    /, -1.8, -1.5, /, /, /, -1.4, -4.4, -10.9, 1.5
S=c1[nH]nc(-c2ccccc2)n1C1C=CCCC1 (stereo unspecified)
    66.0, 2.2, -7.0, /, /, /, -9.1, 2.9, 4.0, 0.0
O=C(Oc1cccc(-n2cnnn2)c1)c1ccccc1Cl
    2.3, 0.4, -8.4, -5.5, 27.0, -0.1, -0.3, 15.3, -0.3, 0.0
